NPYLR7 agonist = activates Aedes aegypti NPYLR7 receptor | AID 1259423 | activation, % at 10 µM | 0.15% of 270,000 active | HEK293T NPYLR7/Galpha15, GCaMP6s calcium fluorescence; in the data active = activation above about 40%;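 also: 0% = vehicle and 100% = reference agonist at the receptor; some compounds past the cut are filed as inactive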
NPYLR7 agonist max-min = also measured in NPYLR7 agonist; calls as there; activation, %; measured here: Max-Min RFU normalised activation; some inactives read as strong as hits;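 span of the calcium signal over five minutes; 0% = vehicle and 100% = native peptide agonist; compound fluorescence can raise it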
* hit, by the source's call; & = joins results of further samples.

SMILES | NPYLR7 agonist | NPYLR7 agonist max-min
COc1ccc(OC)c(-c2cc(Cl)c3c(c2)CC(CNC(=O)C2CCCO2)O3)c1 (stereo unspecified) | -3 | -5
COCc1nc(C)nc(N2CCN(C(=O)c3ccco3)CC2)c1Cc1ccccc1F | -3 | 8
O=C(c1coc(CN(Cc2ccc(F)cc2)Cc2cccc(Oc3ccccc3)c2)n1)N1CCOCC1 | 29 | 35
COc1cc2c3cc1Oc1cc(ccc1O)C[C@@H]1c4c(cc(OC)c(O)c4Oc4ccc(cc4)C[C@@H]3N(C)CC2)CC[N+]1(C)C | -3&-5 | -7&-13
COc1ccc(N2CC(CNC(=O)NCc3cccc4ccccc34)OC2=O)cc1OC (stereo unspecified) | 1 | 13
CCN(CC)C(=O)Cn1cc(C(=O)N2CCC3(C=Cc4ccccc43)CC2)nn1 | 1 | -2
O=C(Nc1ccc(S(=O)(=O)N2CCOCC2)cc1)c1cc(Cl)c2c(c1)OCCO2 | 1 | 11
COc1cccc2oc(C(=O)c3ccc(NC(=O)C(C)C)cc3)cc12 | 2 | 1
COc1ccc2[nH]c3c(c2c1)CCN(C(=O)c1cc(C)on1)C3c1ccc(COC(C)=O)o1 (stereo unspecified) | 12 | 2
Cc1nn(C)cc1CN(C)C(=O)c1cc2ccccc2oc1=O | 2 | 3
COC(=O)CC(=O)N1CCN(c2nccc(-c3cccs3)n2)CC1 | -6 | -8
O=S(=O)(NC1CC1c1ccc(F)cc1)c1ccc2c(c1)OCCO2 (stereo unspecified) | -24 | -27
O=C(Cc1ccc2c(c1)OCO2)NCc1cccnc1N1CCOCC1 | 0 | -8
CCC1CCCCN1Cc1nc2c(c(=O)n(C)c(=O)n2C)n1CCN1CCOCC1 (stereo unspecified) | 4 | 3
CCOCCCn1c(=NC(C)=O)c(C#N)cc2c(=O)n3ccccc3nc21 | 4 | 1
COc1cc(C=Nc2cc(F)ccc2F)cc(OC)c1OC | 6 | 3
CCOC(=O)C1CCN(C(=O)c2cc(-c3cccc(OC)c3)nn2-c2ccc(OC)cc2)CC1 | 3 | 15
CC1C(=O)N(c2cccc(Br)c2)CCN1C(=O)c1ccccc1F (stereo unspecified) | 0 | 6
COCCn1cc(NC(=O)Nc2ccc(F)cc2F)c2ccccc21 | 16 | 6
CCOC(=NCCCN(C)C)NC(=O)c1ccc(F)cc1 | 8 | 13

Reprinted from the part before: five compounds, followed by the next part.
SMILES | NPYLR7 agonist | NPYLR7 agonist max-min
COc1cc(C=Nc2cc(F)ccc2F)cc(OC)c1OC | 6 | 3
CCOC(=O)C1CCN(C(=O)c2cc(-c3cccc(OC)c3)nn2-c2ccc(OC)cc2)CC1 | 3 | 15
CC1C(=O)N(c2cccc(Br)c2)CCN1C(=O)c1ccccc1F (stereo unspecified) | 0 | 6
COCCn1cc(NC(=O)Nc2ccc(F)cc2F)c2ccccc21 | 16 | 6
CCOC(=NCCCN(C)C)NC(=O)c1ccc(F)cc1 | 8 | 13
COc1ccc(C=C(Cl)c2ncc(-c3ccc(F)cc3)o2)cc1 | 11 | 6
CC(C)c1ccc(S(=O)(=O)C2C(=O)NC3(C)CC2c2cc(Br)ccc2O3)cc1 (stereo unspecified) | 16 | 20
CC(C)n1ncc2c1CCC(N(CC(=O)NC1CC1)C1CCc3c(cnn3C(C)C)C1)C2 (stereo unspecified) | 9 | 9
CCOC(=O)c1c(C)[nH]c(C)c1C(=O)COC(=O)c1cc2c(s1)CCC2 | 10 | 4
C=CCNc1nnc(SCC(=O)NC(=O)c2cccn2C)s1 | -1 | -4
CCC(C)N(Cc1cccc(Cl)c1)Cc1nc(C(=O)NCCN2CCOCC2)co1 (stereo unspecified) | -13 | 4
COc1cn(CC(=O)Nc2ccccc2)c(CSc2nncn2C)cc1=O | 0 | -2
CC(=O)Nc1cc(NC(C)=O)cc(C(=O)N(C)C(C)c2ccc(F)cc2)c1 (stereo unspecified) | -1 | -1
COCCNC(=O)[C@@]1(OCc2cccc(C)c2)CC(OCc2cccc(Cl)c2)[C@H](O)[C@H](O)C1 (stereo partly specified) | 3 | 8
Cc1ccc(CNC(=O)c2ccc(S(C)(=O)=O)cc2)n1C | 1 | -1
COc1ccc(S(=O)(=O)c2cnc3cc(OC)c(OC)cc3c2N2CCCC2)cc1 | 3 | 1
Clc1ccccc1CNc1nn[nH]n1 | 1 | -2
CS(=O)(=O)N(CCC#N)Cc1ccc(C=C2C(=O)c3ccccc3C2=O)o1 | 8 | 1
N#Cc1ccc(Cl)cc1NC(=O)CSc1n[nH]c(N)n1 | -4 | -6
COc1cc(F)c(C(=O)N2CCOC(COc3ccc(F)cc3)C2)c(F)c1 (stereo unspecified) | 33 | 31
Fc1cccc(F)c1C=NNc1ncc(Cl)cc1Cl | -1 | -1
Cc1cccc(CN(Cc2cccnc2)CC2CCCN(C3CCCCC3)C2)n1 (stereo unspecified) | 0 | -5
COc1ccc(N2CCN(C(=O)COc3ccc4c(c3)CCC4)CC2)cc1 | 2 | 9
NC(=O)CCNS(=O)(=O)c1cc2cc(Cl)ccc2s1 | -1 | 33
Cc1ccc(N(C(=O)NC(=O)NC2CCS(=O)(=O)C2)S(=O)(=O)c2ccccc2)cc1 (stereo unspecified) | 6 | 2

Record cards, as listed above:
COc1cc2c3cc1Oc1cc(ccc1O)C[C@@H]1c4c(cc(OC)c(O)c4Oc4ccc(cc4)C[C@@H]3N(C)CC2)CC[N+]1(C)C is entered as NPYLR7 agonist: -3&-5; NPYLR7 agonist max-min: -7&-13
COc1ccc(N2CC(CNC(=O)NCc3cccc4ccccc34)OC2=O)cc1OC (stereo unspecified) is entered as NPYLR7 agonist: 1; NPYLR7 agonist max-min: 13
COc1cccc2oc(C(=O)c3ccc(NC(=O)C(C)C)cc3)cc12 is entered as NPYLR7 agonist: 2; NPYLR7 agonist max-min: 1

2 entries from above, field by field:
CCC(C)N(Cc1cccc(Cl)c1)Cc1nc(C(=O)NCCN2CCOCC2)co1 (stereo unspecified)
  NPYLR7 agonist = -13 | NPYLR7 agonist max-min = 4
COc1cn(CC(=O)Nc2ccccc2)c(CSc2nncn2C)cc1=O
  NPYLR7 agonist = 0 | NPYLR7 agonist max-min = -2

(more compounds)
SMILES | NPYLR7 agonist | NPYLR7 agonist max-min
Cn1c(SCC(=O)N2CCOCC2)nc2ccccc21 | 6 | 6
CCS(=O)(=O)c1ncc(CN2CCCC(c3cccc(C)c3)C2)n1CCOC (stereo unspecified) | 6 | 6
CCc1nnsc1C(=O)N1CCC(C(=O)Nc2ccccc2)CC1 | 7 | 7
N#CC1C(=N)Oc2nc[nH]c(=O)c2C1c1ccccc1 (stereo unspecified) | 4 | -4
O=C(c1ccco1)N(Cc1ccco1)Cc1nccn1Cc1ccccc1F | -8 | 3
O=C(NNS(=O)(=O)c1cccc(Cl)c1Cl)c1cc2c(s1)CCCCC2 | -1 | 23
COc1ccccc1C(=O)Cn1c(C)c(C(=O)NCc2ccccc2C(F)(F)F)sc1=O | -1 | -1
CC(=O)Nc1ccc(NS(=O)(=O)c2ccccc2F)cc1O | 3 | 4
CCCC(=O)N1CCC1(C)C(=O)Nc1scc(C)c1C#N (stereo unspecified) | 7 | 2
CSc1nc2nc(C)c(C)nc2c(=O)n1C | -2 | -3
COc1ccccc1C=C1CCCC2C1=Nc1ncnn1C2c1ccccc1OC (stereo unspecified) | 3 | 2
O=[N+]([O-])c1ccc(CN(Cc2cccn2Cc2ccc(F)cc2)C2CC2)cc1 | 0 | 9
CN(C)CCN(Cc1ccc(Cl)cc1)c1ccccn1 | -5&11 | -8&6
CCCN(Cc1c(CC)nn(-c2ccc(F)cc2)c1N1CCN(C(C)C)CC1)C(=O)Nc1ccc(SC)cc1 | 16 | 14
Cc1cc(Br)c(O)c(C(=O)OCC(=O)N2C(C)CCCC2C)c1 (stereo unspecified) | 1 | 3
Cc1ccc(CN(C(=O)c2cnc3cccc(C)n3c2=O)C2CC2)s1 | -14 | -19
c1ccc2c(c1)CCN(C1CCCN(Cc3cc4ccccc4o3)C1)C2 (stereo unspecified) | -1 | -10
CCOC(=O)C1CCN(S(=O)(=O)c2c(C)n(C)c(=O)n(C)c2=O)CC1 | -1 | 0
CCc1ccc2nc(N(Cc3cccnc3)C(=O)c3ccc(C#N)cc3)sc2c1 | -4 | 2
CCOCC(=O)Nc1ccc(-c2ccc3nnc(C)n3n2)cc1 | -11 | -4
Cc1cc(C(=O)N2CC(=O)N3CC(C)c4ccccc4C3C2)c(C)o1 (stereo unspecified) | 5 | 8
Cc1ccc(NC(=O)CSc2nc(=O)n(CCCN3CCOCC3)c3c2CCC3)cc1 | 0 | -4
CCn1c(C)cc(O)c(C(c2ccc(SC)cc2)N2CCN(c3ccccc3F)CC2)c1=O (stereo unspecified) | 12 | 3
Cc1ccc(CSc2nc3ccccc3[nH]2)c(C)c1 | -2 | -4
COC(=O)c1cccc(CN2CCCN(c3ccncc3C)CC2)c1 | 1 | 1
COc1ccc(S(=O)(=O)Nc2ccc3c(c2)CN(C(=O)C2CC2)CC3)cc1Cl | 12 | 5
Cn1ccsc1=NC(=O)CCNC(=O)c1ccc(F)cc1Cl | 11 | 9
O=C(NCC1COc2ccccc2O1)c1coc(=O)c2ccccc12 (stereo unspecified) | 0 | -2
C/C(=N/N=C1\NC(=O)C(CC(=O)Nc2ccccc2)S1)C(C)(C)C (stereo unspecified) | 3 | 1
Cc1ccc2c(C)nc(N3CCCC(C(=O)N4CCC(Oc5ccccc5F)CC4)C3)nc2c1 (stereo unspecified) | 7 | 6
CC(C)(C)c1cn2nc(NCCCn3nc4ccccn4c3=O)sc2n1 | 0 | -1
O=C(CC1SC(=O)NC1=O)Nc1ccc(F)cc1 (stereo unspecified) | 0 | 9
CCOC(=O)[C@@H]1[C@@H](OC)C(=O)N(C)C12CCN(C(=O)CC1CCCC1)CC2 | 17 | 14
COc1cccc(CC2(CO)CCCN(Cc3cn(C)nc3C)C2)c1 (stereo unspecified) | -8 | -15
CCN(CC)c1nc(SC)ncc1CNCc1cc(OC)cc(OC)c1 | 13 | 6
COc1cc(OC)cc(C(=O)Nn2cnc3c(cnn3-c3ccccc3)c2=O)c1 | 4 | -1
Clc1c(-c2nnc(SCc3csc(-c4ccccc4)n3)o2)sc2ccccc12 | 0 | -2
COc1cc(C=C2C(=O)NC(=O)NC2=O)cc([N+](=O)[O-])c1O | 1 | -1
COc1cc(NC(=O)CSc2ccc(-c3sc(-c4cccs4)nc3C)nn2)cc(OC)c1 | -2 | -7
CCOc1ccc(-n2nnnc2CN2CCN(C(=O)c3ccco3)CC2)cc1 | -2 | -3
COC(=O)c1ccccc1NC(=O)NNC(=O)C1(C)CC1(Cl)Cl (stereo unspecified) | -12 | -20
Cc1nnc(SCC(=O)Nc2cccc(I)c2)s1 | 7 | 5
O=c1c2nnn(Cc3ccc(F)cc3)c2ncn1Cc1ccc(C(F)(F)F)cc1 | 10 | 13
COc1cc(OC)cc(C(=O)Nc2cc(C(=O)Nc3ccc(Cl)cc3)ccc2N2CC3CC(C2)c2cccc(=O)n2C3)c1 (stereo unspecified) | -5 | 0
c1ccc(N2CCN(c3ccc4nncn4n3)CC2)cc1 | 3 | 1
Cc1cc(C)cc(NC(=O)Cn2nc3ccc(SC4CCCCC4)nn3c2=O)c1 | 2 | -2
CCOC(=O)c1nn(CCC(F)(F)F)c2c1CN(C(=O)c1cc3ccccc3cn1)CC2 | 15 | 3
O=C(CCCn1nc(-c2ccccc2)ccc1=O)Nc1nc2ccccc2s1 | 4 | 6
Cc1cc(NC(=O)N(C)CCCC(=O)OC(C)(C)C)no1 | 0 | -2
O=C(O)c1c(Cl)c(Cl)c(Cl)c(Cl)c1C(=O)N1CCCC1 | -11 | -16
Cc1oc(C(=O)N(C)c2ccc(F)cc2)cc1S(N)(=O)=O | -11 | -12
CC1(C)[C@@H]2CC[C@H](CNC(=O)c3cc(Cn4cnc5ccccc54)[nH]n3)[C@H]1C2 | -3 | -11
CC1=C(C(=O)N(C)Cc2nc3ccc(C)cc3[nH]2)C(C)NC(=O)N1 (stereo unspecified) | -1 | -3
CCOC(=O)c1nn(-c2ccc(C)cc2)c(=O)cc1OCC(=O)Nc1ccccc1OCC | 12 | 8
CCOC(=O)c1cc(C(C)(C)C)n(C2CCN(S(=O)(=O)c3cccc(C)c3)CC2)n1 | 26 | 18
O=C1CCC(C(=O)N2CCCCO2)CN1CCN1CCOCC1 (stereo unspecified) | 1 | -3
C=CCN(C(=O)c1cc(CC(C)C)nn1C)C1CCS(=O)(=O)C1 (stereo unspecified) | 4&1 | 1&-2
Nc1ccc(-n2c(CCCO)nc3ccccc32)cn1 | 0 | 8
COc1cccc(C2C(=C(O)c3ccc(C)cc3)C(=O)C(=O)N2CCCn2ccnc2)c1OC (stereo unspecified) | 0 | 6
CC1CCC(C(C)C)C(OC(=O)COC(=O)C2CCN(S(=O)(=O)c3cccs3)CC2)C1 (stereo unspecified) | -5 | -5
O=C(Nc1cccc(OC2CCCC2)c1)C1CC1c1cccnc1 (stereo unspecified) | -4 | -4
CCCSc1nc2c(c(=O)[nH]1)C(c1cccs1)C(C(=O)OC(C)C)C(C)=N2 (stereo unspecified) | -1 | -1

Taken from above:
`CN(C)CCN(Cc1ccc(Cl)cc1)c1ccccn1` in NPYLR7 agonist reads -5&11
`COc1cccc(CC2(CO)CCCN(Cc3cn(C)nc3C)C2)c1` (stereo unspecified) in NPYLR7 agonist max-min reads -15

From PubChem

Not all compounds are listed, so the mix of outcomes need not match the whole.
